Assay outcomes deposited in PubChem by National Center for Advancing Translational Sciences (NCATS).
PINK1 expr mod = modulators of PINK1 expression; PINK1 immunofluorescence, high-content cytometry, 24 h; hit rate 0.2% among 410,000; Potency, µM (highest dose often 76.6 µM), without a hit: at the highest dose activation (PINK1 increase), usual class: activators; AID 624263; active = well fitted activation curve with a large enough effect; inconclusive = small, poorly fitted or top-dose-only effect; inactive = flat fitted curve, though single readings scatter; cell line not stated here;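 note: potency is the fitted concentration of half-maximal effect; % of control where 0% means no effect; nearly all actives have a fitted effect of over 65% in size; a mitochondrial uncoupler was the plate control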
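Decision-based qHTS: stable cells, 24 h exposure to five compound concentrations, CCCP as control. Fixed cells stained for PINK1 plus nuclear, mitochondrial and cell markers, cytometer read.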
Sfp PPTase inh = blocks B. subtilis Sfp PPTase activity. Q9F4F7. Biochemical Sfp PPTase activity, qHTS. Potency, µM, for the others: max response, negative = inhibition, most hits filed as inhibitors. hit rate 3.5% among 310,000. AID 1490; active = well fitted inhibition curve with a large enough effect; inconclusive = small, poorly fitted or top-dose-only effect, or another doubt; inactive = no such curve, though single readings can be large or run the other way;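 note: the enzyme is Sfp with the accession as filed and its product quenches rhodamine fluorescence; potency is the fitted concentration of half-maximal effect; 0% = enzyme reaction without inhibitor and -100% = no enzyme wells; top concentration of the series not given in the record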
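Compounds were incubated with enzyme (final 15 nM) for 15 min at room temperature before substrate addition started the reaction. Fluorescence at 525 nm excitation, 598 nm emission was recorded immediately and after 30 minutes.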
ClpP mod = qHTS Assay for Activators of ClpP; purified B. subtilis ClpP, FRET peptide cleavage, 20 min; Potency, µM (titrated, usually from 57.5 µM), for inactives: top-dose activity change, negative = active; hit rate 1.9% among 340,000; AID 651965, 2013; active = well fitted falling curve with a large enough effect; inconclusive = small, poorly fitted or top-dose-only effect; inactive = no such curve, though single readings can be large or run the other way; note: potency is the fitted concentration of half-maximal effect; the source files actives as falling curves though it sought activators and does not explain the sign; nearly all actives have a fitted effect of over 65% in size; many hits overshoot -100%
Target sequence (P80244 whole entry, looked up): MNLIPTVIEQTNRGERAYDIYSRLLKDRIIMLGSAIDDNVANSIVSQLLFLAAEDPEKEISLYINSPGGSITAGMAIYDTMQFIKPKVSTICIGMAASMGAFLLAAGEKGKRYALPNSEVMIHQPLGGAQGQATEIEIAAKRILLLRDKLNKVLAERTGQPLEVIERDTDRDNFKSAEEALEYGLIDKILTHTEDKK
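FRET quenching reversal measured ClpP activation: 10 microg/mL B. subtilis ClpP at pH 8 with the FRET-FV decapeptide, read at 430 nm after 320 nm excitation. The 20-min minus 0-min signal was scaled between DMSO/no-enzyme wells and ADEP (5.8 microM final).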
gsp agonist = gsp mutant agonism. hit rate 0.13% among 340,000. AID 624287. Potency, µM (top dose mostly 76.9 µM), without a hit: top-dose activation (cAMP increase), actives largely listed as activators. gsp mutant cells, cAMP HTRF, 30 min; control for the full effect not named in the record; active = well fitted activation curve with a large enough effect; inconclusive = small, poorly fitted or top-dose-only effect, or another doubt; inactive = no such curve, though single readings can be large or run the other way; cell line not stated here;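 note: phosphodiesterase inhibitor Ro 20-1724 added with compounds to block cAMP breakdown; potency is the fitted concentration of half-maximal effect; nearly all actives have a fitted effect of over 60% in size; about a fifth of the inactives were tested at one dose only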
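Cells in DMEM/10% FBS with G418 were pretreated with compounds in DMSO plus […] (300 uM stock) for 30 min at 37C. cAMP was measured by HTRF (cAMP-d2 plus anti-cAMP antibody-K) after 30 min at room temperature.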
Menin MLL FP FL = menin-MLL binding inhibition, fluorescein peptide | 290,000 tested, under 10 active | Fluorescence polarization, fluorescein-MLL peptide displacement from menin | FP activity change, % at 61.4 µM | AID 1766; inconclusive = falling polarisation curve, or a change in total fluorescence; inactive = total fluorescence flat and polarisation flat or rising; no compound was filed as active; the % refers to the polarisation; negative = inhibition;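 note: % of control where 0% means no effect; inhibitors lower the polarisation; unlabelled MLL peptide was the positive control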
gsp antagonist = gsp mutant antagonism; hit rate 0.4% among 340,000; gsp-mutant cells, cAMP HTRF, 30 min; control for the full effect not named in the record; Potency, µM (doses to about 76.9 µM), for the others: at the top dose activity change, negative = inhibition, most hits filed as inhibitors; active = falling curve of any shape with a large fitted effect; inconclusive = falling curve, mostly with a smaller effect; inactive = flat or rising curve; cell line not stated here;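 note: intracellular cAMP measured with PDE inhibitor Ro 20-1724 present during compound exposure; potency is the fitted concentration of half-maximal effect; % is set by controls: 0 for no effect and ±100 for the full control effect; nearly all actives have a fitted effect of over 65% in size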
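Measurement of cellular cAMP by homogeneous time-resolved fluorescence following a 30 min compound exposure at 37C. The PDE inhibitor […] was present throughout; the assay buffer was DPBS with 0.05% BSA and 0.005% Tween 20.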
D2 ag = activates the human D2 dopamine receptor; activation, % (no concentration beside the values); hit rate 0.084% among 360,000; P14416; DiscoveRx PathHunter D2 beta-arrestin, luminescence, 90 min; 100% = 57 uM dopamine signal; AID 624465; in the data active = activation above about 40%; inconclusive = about 15% to 40%; inactive = below about 15%; note: compound concentration not given in the record; the text of the record calls up to 30% inactive
Target sequence (P14416 whole entry, looked up): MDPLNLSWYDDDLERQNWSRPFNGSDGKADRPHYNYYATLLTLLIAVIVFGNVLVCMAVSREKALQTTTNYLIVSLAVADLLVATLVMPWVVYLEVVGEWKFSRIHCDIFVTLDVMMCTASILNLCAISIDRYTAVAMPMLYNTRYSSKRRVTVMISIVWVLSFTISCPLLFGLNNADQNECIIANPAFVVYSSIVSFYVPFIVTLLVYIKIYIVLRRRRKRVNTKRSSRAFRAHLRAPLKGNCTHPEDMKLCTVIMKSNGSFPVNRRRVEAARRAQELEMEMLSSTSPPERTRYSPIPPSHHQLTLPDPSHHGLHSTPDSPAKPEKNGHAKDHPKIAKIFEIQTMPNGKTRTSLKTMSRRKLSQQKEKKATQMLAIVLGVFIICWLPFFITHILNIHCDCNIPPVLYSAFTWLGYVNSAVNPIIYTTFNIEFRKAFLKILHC
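DiscoveRx PathHunter D2 beta-arrestin cells (2,100/well) attached overnight, then compound-stimulated 90 min at 37 C in HBSS/10 mM HEPES/0.1% Tween-20 buffer; beta-galactosidase complementation read by luminescence after 1 h at ambient temperature. Dopamine 57 uM final (EC100) as control.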
Numbers without * were called inactive; ? = inconclusive; · = not tested or not shown; [ ] = another dose, or the depositor's remark.

SMILES	PINK1 expr mod	Sfp PPTase inh	ClpP mod	gsp agonist	Menin MLL FP FL	gsp antagonist	D2 ag
CCc1cc(=O)oc2c3c(cc(OCC(=O)NCCN4CCOCC4)c12)OC(C)(C)CC3	0.6%	10.7%	4.5%	·	-4.8	-1.1%	-5.3
CC(=O)Nc1ccc(-c2ccnc3c2CC(C(=O)Nc2cccc(N(C)C)c2)O3)cc1 (configuration not stated)	5.7%	·	-11.0%	·	·	·	4.6
FCCCOc1ccc(-c2nccc(-c3ccc(Br)cc3)n2)cc1	11.3%	12.1%	-13.5%	-2.0%	-1.8	0.2%	0.7
CN1CCN(C(c2ccccc2)c2ccc(Cl)cc2)CC1 (configuration not stated)	1.2%	·	-3.6%	·	·	-1.9%	-4.4
COCCN(C(=O)c1ccc(-c2ccc([N+](=O)[O-])cc2)o1)c1c(N)n(CC(C)C)c(=O)[nH]c1=O	2.2%	·	1.3%	4.7%	·	8.1%	-4.5
O=C(CSc1nnc(-c2cnccn2)n1Cc1ccco1)c1ccccc1	·	-12.1%	-7.0%	-16.6%	1.2	6.0%	-1.0
COC(=O)c1c(NC(=O)COC(=O)c2ccc(Cl)nc2)sc(C)c1C	2.6%	·	-3.7%	2.2%	·	7.2%	-0.1
CC(=O)c1cccc(NC(=O)C(OC(=O)c2cccs2)c2ccccc2)c1 (configuration not stated)	0.0%	2.9%	-0.3%	19.1%	-7.5	0.0%	1.0
CN(C)c1cccc(N(C)C)c1CNC(=O)NC(=O)c1c(F)cccc1F	0.1%	-3.5%	1.2%	?	·	-30.2%	1.4
O=[N+]([O-])C1=C(Nc2cccc3ccccc23)CS(=O)(=O)C1	5.6%[38.3 µM]	4.8%	3.0%	8.3%	2.2	-15.9%	-0.3
CCOC(=O)C(OC(=O)c1sc(=S)n(C)c1C)C(C)=O (configuration not stated)	-0.9%	7.3%	-3.6%	-10.8%	1.0	6.4%	-8.7
CCN(CC)S(=O)(=O)c1ccc(=O)[nH]c1	-0.2%	22.8%	-1.7%	0.3%	6.3	9.1%	-1.0
CNc1c(NS(=O)(=O)c2ccc(F)cc2)c(=O)oc2ccccc12	-0.3%	13.2%	·	-26.6%	4.7	4.0%	-1.5
C=CC[C@H](CC(=O)N(CCO)Cc1ccccc1)C(=O)NCCOC(=O)[C@@H](CC=C)Cc1ccc(F)cc1	0.2%	·	-1.1%	·	·	-12.4%	-1.8
CCOC(=O)C1=C(C)NC(=O)C(C#N)C1c1ccco1 (configuration not stated)	-0.2%[38.3 µM]	-0.7%	-3.6%	6.2%	0.8	-0.1%	-2.7
CCOc1ccc(NC(=O)C2CC(=O)N3CCCN=C3S2)cc1 (configuration not stated)	-0.7%	-6.1%	1.1%	-22.6%	-2.8	-5.8%	-3.0
O=C(CCNC(=O)c1ccccc1Cl)NCCCSc1ccccc1	0.8%	·	1.2%	4.8%	·	6.1%	0.7
CCc1nnc(NC(=O)CSc2nnc(C(C)NC(=O)c3ccccc3F)n2C)s1 (configuration not stated)	4.3%	3.9%	1.6%	-1.8%[15.4 µM]	·	15.0%	-8.6
Cc1ccc(C(=O)C(O)C(c2ccc(C)cc2)N2CCCCC2)cc1 (configuration not stated)	-0.5%	12.4%	·	-11.1%[15.4 µM]	0.0	3.7%	1.0
O=C(Nc1ccc(S(=O)(=O)N2CCCC2)cc1)c1ccc(Cl)nc1	-0.7%	·	·	9.2%[15.4 µM]	·	-11.5%	-2.6
CC(=O)c1ccc(NC(=O)C2CC2c2ccccc2)cc1 (configuration not stated)	0.0%	·	-1.8%	-7.9%[15.4 µM]	·	-0.9%	-6.1
CC1CCN(C(=O)C2CCN(S(=O)(=O)c3cccc4nonc34)CC2)CC1	0.8%[38.3 µM]	6.5%	0.4%	-33.0%	-0.5	0.2%	1.4
CCC(=O)Nc1c(OC(=O)CC)ccc2c(C)cc(=O)oc12	0.2%	9.6%	4.7%	?	1.7	1.5%	-2.6
COC(=O)c1ccc(C(NC(=O)c2cccnc2)NC(=O)c2cccnc2)cc1	-0.3%	7.5%	·	26.1%	-6.3	16.9%	0.6
C/C(=N\N=C(N)N)c1cc(Cl)ccc1Cl	4.4%	12.0%	-0.9%	-37.6%[inhibitor]	-1.7	11.3%	-1.6
O=C(CNC(=O)c1ccccc1)NCC(=O)OCC(=O)c1ccc(F)cc1	3.6%	4.4%	0.6%	-6.7%	5.6	-4.4%	-6.8
COc1cccc(-c2cc(C(=O)NCC3CCCO3)on2)c1 (configuration not stated)	0.4%	13.3%	-0.5%	-41.0%[inhibitor]	·	0.3%	3.7
O=C(Cn1cc(C(=O)c2ccco2)c2ccccc21)NCc1ccco1	-3.0%	17.0%	0.0%	0.9%	0.2	12.0%	0.4
Cc1ccc(C)c(NC(=O)CN(C)C(=O)c2ccc(-c3ccc(Cl)cc3)o2)c1	6.7%	·	·	-22.6%[15.4 µM]	·	3.1%	0.8
CCOC(=O)N1CCC(n2c(SCC(=O)N3CCC(C)CC3)nc3ccccc3c2=O)CC1	0.4%	79.4µM*	-1.9%	?	-0.5	-29.0%	1.8
CCOc1ccc(S(=O)(=O)NCc2ccccc2)cc1C(N)=O	1.6%	7.3%	·	-7.3%	-1.4	1.1%	1.4
CCNC(=S)NNC(=O)c1ccc(=O)n(Cc2ccccc2)c1	2.4%	21.4%	·	13.9%[15.4 µM]	-3.2	-1.0%	1.3
Cn1c(=O)c2c(nc(NCc3ccccc3)n2C)n(C)c1=O	-0.7%	6.6%	0.6%	?	-1.1	10.7%	-1.6
CC1(C(=O)NS(=O)(=O)C2CC2)CCCN(C(=O)c2ccc3c(c2)OCO3)C1 (configuration not stated)	2.7%	·	0.8%	·	·	·	-4.1
COc1ccc(CNC(=O)CCCn2c(SCC#N)nc3cc4c(cc3c2=O)OCO4)cc1	1.4%	4.8%	-3.4%	1.5%	1.9	-3.2%	-2.2
CN(C)C(=O)COC(=O)[C@H](Cc1ccccc1)NC(=O)c1ccco1	-0.2%	22.0%	-0.8%	?	1.8	-28.9%	-3.3
Cc1ccc(/C=N/NC(=O)c2cc(-c3cccnc3)nc3ccccc23)cc1	8.1%	-1.4%	·	10.0%[15.4 µM]	-3.7	8.8%	1.7
Cc1nnc(SCC(=O)N(CC(C)C)c2c(N)n(Cc3ccccc3)c(=O)[nH]c2=O)n1N	2.6%	·	-1.7%	8.5%	·	4.3%	-1.5
CCc1ccccc1Nc1ccc(C(=O)O)cc1N	0.3%	-26.5%	28.2µM*	2.6%	4.8	-32.0%	3.8
COCC(C)n1c(C)cc(C(=O)COC(=O)c2cccn2C)c1C (configuration not stated)	-0.1%	·	-1.9%	?	·	6.2%	-3.0
O=C(O)CNC(=O)c1ccc2c(c1)OCCO2	12.6µM*	-2.4%	0.3%	-41.6%[inhibitor]	0.4	10.3%	0.1
CCN1CCN(CC(=O)c2c(C)n(C)c3ccc(OC)cc23)CC1	3.7%	6.4%	-3.6%	?	4.9	14.6%	-3.1
O=C(NCC1CCCO1)c1ccc2ccccc2n1 (configuration not stated)	1.1%	1.0%	-1.0%	20.9%	-1.3	-2.0%[15.4 µM]	1.4
O=C(CN(Cc1ccco1)C(=O)Cn1nnc(-c2cccs2)n1)NCC1CCCO1 (configuration not stated)	0.8%	-11.7%	0.9%	-28.7%	0.6	2.8%	-4.0
CCOCCCN(C(=O)c1snc(C(N)=O)c1N)C(C(=O)NC1CCCC1)c1ccc(O)cc1 (configuration not stated)	-2.5%	10.5%	·	-16.4%	-0.4	-6.4%	-3.2
Cc1ccccc1OCC(=O)NNC(=O)c1ccc(-c2ccccc2)cc1	17.7%[38.3 µM]	11.3%	-4.8%	-15.4%	-0.6	13.1%	4.1
Cc1ccccc1-n1c(=O)cc(N2CCc3ccccc32)[nH]c1=O	2.9%	56.2µM*	-1.1%	5.2%	?	3.0%	3.9
CCOc1ccc(NC(=O)C2CCCN(c3nc(C)cc(C)n3)C2)cc1 (configuration not stated)	7.9%	4.4%	·	26.0%	·	21.7%	1.3
O=C(CNS(=O)(=O)c1ccc(Cl)cc1)NNC(=O)c1cccnc1	0.3%	?	·	-11.6%[15.4 µM]	-0.9	17.3%	-3.1
COc1ccc(S(=O)(=O)NCc2ccncc2)cc1NC(=O)c1ccc(Cl)cc1	4.6%	·	·	-4.3%[15.4 µM]	·	-17.4%	-4.5
O=C(N/N=C/c1ccc(-c2ccc(S(=O)(=O)Nc3ncccn3)cc2)o1)c1cc2ccccc2cc1O	-0.9%	50.1µM*	?	?	6.2	-14.6%	-4.4
O=C(CC1C(=O)NCCN1Cc1cccc(Oc2ccccc2)c1)NCCCn1cccn1 (configuration not stated)	0.4%	11.3%	·	-6.6%[15.4 µM]	-4.3	1.7%	-2.6
CC(C)(C)c1ccc(/C=N/NC(=O)C[n+]2ccccc2)cc1	0.9%	5.7%	·	-0.9%	3.8	2.6%	-4.3
CN(C(=O)Nc1ccc(Cl)c(Cl)c1)c1ccccc1C(=O)O	7.7%	-25.1%	-0.7%	9.0%[15.4 µM]	3.1	4.6%	-3.9
COc1ccc2[nH]c(C(=O)Nc3ncc(C)cc3Br)cc2c1	-0.5%	10.1%	·	?	0.6	-2.1%	5.0
COc1ccc(CNCCCn2cnc3c(OCc4ccccc4)ncnc32)cc1	3.7%	·	1.5%	·	·	3.6%	-1.0
CC1(C)CC(=O)C(CC2=C(O)CC(C)(C)CC2=O)C(=O)C1	-1.9%	?	-0.5%	-33.2%[inhibitor]	0.8	-5.1%	1.2
O=C(O)Cc1ccc(N2N=C(c3ccccc3)CC2=O)cc1	3.6%	·	4.5%	·	·	·	-13.4
CCN(CC)C(=O)COc1ccc(/C=C(\C#N)S(=O)(=O)c2ccccc2)cc1OC	-0.7%	1.8%	-8.8%	-1.6%	0.1	-15.9%	-2.3
COc1ccc(C)cc1S(=O)(=O)N(CC(=O)NCc1ccco1)c1ccc(C)cc1	11.2%	-16.3%	-0.1%	-24.7%	0.1	-9.5%	0.7
CCOC(=O)NC1(C(F)(F)F)NC(=O)N(c2ccc(F)cc2)C1=O (configuration not stated)	-1.6%	17.5%	35.5µM*	-6.1%	5.6	9.7%	2.6
Cc1ccccc1OCC(=O)N1CCCCCCC1	0.7%	9.2%	-2.2%	8.3%[15.4 µM]	-0.1	0.0%	-2.0
Cc1ccc(-c2nc(=O)[nH]c3ccccc23)cc1	0.1%	17.8%	?	1.7%[15.4 µM]	-2.1	2.8%	-5.9
